Compound activity deposited in PubChem by several laboratories.
PKD1 inh – blocks activity of human protein kinase D1; inhibition, %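 (about 10 µM by stock and volumes)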; AID 797; actives 0.056% (n = 200,000); Q15139; PKD1 kinase fluorescence polarization assay;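 active = inhibition of 50% or more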;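 note: controls were vehicle for no effect and a reference inhibitor for full effect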
RGS16-Gao HTS – regulators of human RGS16-Galphao interaction; O15492+P09471; bead-based flow cytometry RGS16-Galphao binding, fluorescence; actives lie on both sides; binding response (% of control), % at 10 µM; actives 0.38% (n = 220,000); AID 1441;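 active = below 25% or above 175%, edge rows of some plates excepted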;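 note: Galphao activated by GDP with aluminum fluoride before binding; 100% = wells without compound and 0% = beads without RGS; some results beyond the cut were filed as inactive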
Target sequence (O15492 whole entry, looked up): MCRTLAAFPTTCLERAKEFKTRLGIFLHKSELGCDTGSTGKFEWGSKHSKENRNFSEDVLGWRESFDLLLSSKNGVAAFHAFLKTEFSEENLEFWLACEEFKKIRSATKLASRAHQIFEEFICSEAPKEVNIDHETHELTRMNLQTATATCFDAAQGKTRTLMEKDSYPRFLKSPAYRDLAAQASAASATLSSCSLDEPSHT
Target sequence (P09471 whole entry, looked up): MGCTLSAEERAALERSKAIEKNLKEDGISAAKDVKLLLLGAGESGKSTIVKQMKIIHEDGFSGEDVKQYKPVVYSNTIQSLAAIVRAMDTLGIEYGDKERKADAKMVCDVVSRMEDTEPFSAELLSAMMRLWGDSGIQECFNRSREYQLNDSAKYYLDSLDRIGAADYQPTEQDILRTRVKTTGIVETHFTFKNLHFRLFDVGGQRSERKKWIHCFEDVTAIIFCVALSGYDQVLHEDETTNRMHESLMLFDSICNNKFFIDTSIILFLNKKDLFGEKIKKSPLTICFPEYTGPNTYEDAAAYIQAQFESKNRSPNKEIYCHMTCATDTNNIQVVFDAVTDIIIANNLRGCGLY
HSV replic up – increases HSV replication in cells. actives 0.005% (n = 220,000). HSV replication augmentation in cells, fold increase. maximum fold increase;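 active = peak rise of 1.5-fold or more in the series; tested in PC3 cells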;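 note: first round at 10 µM; read as green reporter fluorescence; hits show the peak of a series up to 25 µM; 1 = signal of infected wells without compound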
Insulin prom inh – TRM-6 insulin promoter activity inhibition; inhibition, % at 2 µM; TRM-6 cells (human fetal islet line), insulin promoter-eGFP reporter, imaging; reporter expression induced with tamoxifen; actives 0.9% (n = 130,000);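 active = inhibition above the mean plus 3 SD, with well images judged a real hit on visual review, cut at about 60% in these data, passing the limit was not always enough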
GALR2 agonist – GALR2 (human) receptor agonism | actives 0.48% (n = 140,000) | GALR2-expressing cells, agonist activation read-out | activation, %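 (tested at 5 µM)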 | O43603;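 active = above mean plus 3 SD of all compounds, about 5% in these data, not always enough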;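 note: 0% = vehicle buffer wells and 100% = reference agonist at full effect; tested in CHO reporter cells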
Target sequence (O43603 whole entry, looked up): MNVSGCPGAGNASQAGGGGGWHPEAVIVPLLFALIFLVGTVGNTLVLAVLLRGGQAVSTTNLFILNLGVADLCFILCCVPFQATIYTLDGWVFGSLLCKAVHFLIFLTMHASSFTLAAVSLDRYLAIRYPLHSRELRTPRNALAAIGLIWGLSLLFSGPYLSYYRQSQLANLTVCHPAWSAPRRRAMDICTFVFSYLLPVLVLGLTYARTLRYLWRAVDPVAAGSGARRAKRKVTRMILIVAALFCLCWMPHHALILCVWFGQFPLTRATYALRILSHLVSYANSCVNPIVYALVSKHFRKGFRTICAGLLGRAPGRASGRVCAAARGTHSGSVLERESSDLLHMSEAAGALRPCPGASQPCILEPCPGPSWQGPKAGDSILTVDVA
Insulin prom inh cell count – recorded beside Insulin prom inh, whose call it bears; normalized cell count, %; measured here: cell count, toxicity; reference of the scale not given here;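 cells exposed to compound for 48 h; stained nuclei by imaging scaled within each plate; lower means fewer cells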
HSV replic up primary fold – recorded beside HSV replic up, whose call it bears; fold increase; compound at 10 µM; measured here: primary screen fold increase 10 uM; tested in PC3 cells;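 GFP signal in the first replicate; 1 = infected wells without compound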
* = called active by the depositor; i = inactive; x = not tested or not shown.

item | compound | PKD1 inh | RGS16-Gao HTS | HSV replic up | HSV replic up primary fold
1 | CCc1nnc(NC(=O)CCN2C(=O)CCC2=O)s1 | 5 | 92 | i | 0.86
2 | COc1ccc(-n2nc(C(=O)Nc3cc(OC)c(OC)c(OC)c3)c3ccccc3c2=O)c(OC)c1 | 0 | 100 | i | 0.86
3 | CCOC(=O)N1CCN(C(=O)COc2ccc(Br)cc2Cl)CC1 | -16 | 100 | i | 0.89
4 | CCOC(=O)C(NC(=O)c1ccccc1)(OCc1ccccc1)C(F)(F)F (centres undefined) | 8 | 98 | i | 0.98
5 | COc1ccc(CNC(=O)CSc2nnnn2C)cc1OC | 2 | 105 | i | 1.1
6 | COCCn1c(-c2ccccc2)nc2oc3cc(OC)ccc3c(=O)c2c1=O | -3 | 49 | i | 0.96
7 | CCOc1cc(C2C(C(=O)OC)=C(C)N=C3SCCC(=O)N32)ccc1OC(C)=O (centres undefined) | 7 | 112 | i | 0.94
8 | CCS(=O)(=O)c1ccc(N)cc1 | -2 | 104 | i | 1
9 | CC(C)CNC(=O)COc1cccc(C(=O)NCc2ccccc2)c1 | -6 | 105 | i | 0.93
10 | CC(C)CNC(=O)c1ccccc1NC(=O)c1ccc(CN2CCOCC2)cc1 | -10 | 102 | i | 0.89

item | Insulin prom inh | Insulin prom inh cell count | GALR2 agonist
1 | 0 | 128 | -2.2
2 | x | x | x
3 | -44 | 152 | -1.6
4 | -13 | 114 | -0.9
5 | x | x | x
6 | 56 | 166 | -3.0
7 | 19 | 68 | 0.9
8 | -11 | 100 | x
9 | -21 | 165 | -0.4
10 | 73 | 64 | -2.0

Remaining list, next part
item | compound | PKD1 inh | RGS16-Gao HTS | HSV replic up | HSV replic up primary fold
11 | COc1cccc([C@@H]2Oc3ccc(OC)cc3C(=O)[C@H]2OC(=O)N[C@H](C)C2CCCCC2)c1 | -3 | 104 | x | x
12 | Cc1cc(C(=O)CSc2ncn[nH]2)c(C)n1-c1cccc(S(=O)(=O)N2CCOCC2)c1 | -13 | 112 | i | 0.98
13 | O=C(c1ccccc1F)N1CCN(Cc2cccc(Cl)c2)CC1 | -15 | 162 | i | 0.94
14 | Cc1cc(C)c(NC(=O)NC(=O)C(Cl)(Cl)Cl)c(C)c1 | 0 | 99 | i | 1.1
15 | CCOc1ccc(N(Cc2cc3cc(OC)ccc3[nH]c2=O)C(=O)C2CCCO2)cc1 (centres undefined) | 6 | 87 | i | 1
16 | COc1ccc(S(=O)(=O)N2CCCCC2)cc1C(C)C | -2 | 98 | i | 1
17 | Clc1cc(Cl)cc(Nc2ncnc(-n3cccc3)n2)c1 | x | 100 | i | 1.1
18 | COc1ccc(N2C(=O)CC(N3CCN(S(=O)(=O)c4cc(C)ccc4C)CC3)C2=O)cc1 (centres undefined) | 0 | 104 | i | 0.91
19 | O=C(Cn1nnc(-c2ccc(NC(=O)c3ccccc3F)cc2)n1)NCc1ccc(F)cc1 | x | 104 | i | 0.91
20 | O=S(=O)(Cc1ccc(Cl)cc1)c1ccccc1-c1nnc(-c2ccc(Cl)cc2)o1 | 0 | 99 | x | x

item | Insulin prom inh | Insulin prom inh cell count | GALR2 agonist
11 | 48 | 115 | -2.0
12 | -19 | 105 | -0.1
13 | 14 | 93 | -2.6
14 | x | x | x
15 | 62 | 68 | 2.1
16 | 18 | 72 | -0.5
17 | x | x | x
18 | 20 | 106 | x
19 | x | x | x
20 | 26 | 119 | -3.1

Other structures follow.
item | compound | PKD1 inh | RGS16-Gao HTS | HSV replic up | HSV replic up primary fold
21 | c1ccc(-c2nc(NCCCN3CCOCC3)c3ccccc3n2)cc1 | -5 | 102 | i | 0.97
22 | O=S(=O)(Nc1cc(C(F)(F)F)ccc1N1CCOCC1)c1ccc2ccccc2c1 | 20 | 108 | i | 0.9
23 | Cc1c(Cl)cccc1NC(=O)COC(=O)CN1C(=O)NC(C)(C)C1=O | x | 98 | i | 1
24 | COc1ccc(N(CC(=O)NCCSC(C)(C)C)S(C)(=O)=O)c(OC)c1 | 5 | 98 | i | 1.4
25 | CC1CC(CCC(=O)NC(=S)Nc2ccc(Cl)cn2)C(=O)O1 (centres undefined) | 2 | 112 | i | 0.81
26 | COc1cc(NS(C)(=O)=O)c(OC)cc1NC(=O)c1ccccc1 | -4 | 109 | i | 0.74
27 | O=C(NCCN1CCOCC1)NC1(C(F)(F)F)Oc2ccccc2O1 | 2 | 92 | i | 0.83
28 | CC(OC(=O)c1ccncc1)C(=O)Nc1ccc([N+](=O)[O-])cc1Cl (centres undefined) | 9 | 102 | i | 0.96
29 | Cc1ccc2oc(/N=C(\N)NC(=O)C3CC3)nc2c1 | x | 97 | i | 0.86
30 | CCOc1ccc(C2/C(=C(\O)c3cccc(OC)c3)C(=O)C(=O)N2c2ccccn2)cc1OC (centres undefined) | x | 103 | i | 0.88

item | Insulin prom inh | Insulin prom inh cell count | GALR2 agonist
21 | -15 | 97 | -3.2
22 | -386 | 88 | -0.6
23 | x | x | x
24 | 22 | 91 | -0.5
25 | x | x | x
26 | 45 | 138 | -2.1
27 | 0 | 122 | -2.8
28 | x | x | x
29 | x | x | x
30 | x | x | x

The results go on:
item | compound | PKD1 inh | RGS16-Gao HTS | HSV replic up | HSV replic up primary fold
31 | O=C(CCN1CCCCC1)c1ccc2c(c1)OCO2 | -8 | 103 | i | 1
32 | C(=C\c1nccc2c1[nH]c1ccccc12)/c1ccccc1 | x | 109 | i | 0.84
33 | COc1ccc(C2/C(=C(\O)c3ccc4c(c3)OCCO4)C(=O)C(=O)N2CCCN(C)C)cc1 (centres undefined) | 0 | 109 | i | 1
34 | O=C(O)c1cn(C2CC2)c2cc(N3CCOCC3)c(F)cc2c1=O | -3 | x | x | x
35 | COc1ccc(N2CCN(Cc3nc4ccccc4c(=O)[nH]3)CC2)cc1 | -8 | 102 | i | 0.98
36 | Cc1c(Cl)cccc1NC(=O)COc1ccc(S(=O)(=O)N2CCOCC2)cc1 | -3 | 103 | i | 0.92
37 | Cc1c(NC(=O)COC(=O)C23CC4CC(CC(O)(C4)C2)C3)c(=O)n(-c2ccccc2)n1C | -7 | 102 | i | 1.1
38 | CC(C)c1ccc(S(=O)(=O)c2nnn3c2nc(N2CCCCC2)c2ccccc23)cc1 | -2 | 31 | i | 1
39 | CCCCC(CC)C1OCC(CN2CCCCC2)O1 (centres undefined) | x | 86 | i | 1
40 | COc1ccccc1NC(C)C(=O)N/N=C/c1cccs1 (centres undefined) | -1 | 102 | i | 1

item | Insulin prom inh | Insulin prom inh cell count | GALR2 agonist
31 | 50 | 102 | -1.5
32 | x | x | x
33 | -93 | 84 | -0.2
34 | -58 | 66 | -1.5
35 | i | 56 | -0.7
36 | 25 | 110 | -1.9
37 | x | x | x
38 | -10 | 67 | -0.3
39 | x | x | x
40 | -21 | 76 | x

(more compounds)
item | compound | PKD1 inh | RGS16-Gao HTS | HSV replic up | HSV replic up primary fold
41 | COC(=O)CC1C(=O)NCCN1C(=O)c1ccccc1 (centres undefined) | -3 | 100 | i | 0.9
42 | COc1cc2c(cc1OC)CN(C(=S)Nc1c(C)cccc1C)CC2 | -10 | 110 | i | 0.95
43 | CCCCn1c(SCC(=O)NCC2CCCO2)nc2ccc(N3CCOCC3)cc2c1=O (centres undefined) | 7 | 106 | i | 0.69
44 | Cc1nn(C(=O)CNS(=O)(=O)c2ccccc2)c(C)c1Sc1ccc(Cl)cc1 | -12 | 106 | i | 0.95
45 | CC(C)CN(C(=O)COC(=O)C1c2ccccc2Oc2ccccc21)C1CCS(=O)(=O)C1 (centres undefined) | -1 | 94 | i | 0.97
46 | CC(C)CNC(=O)c1cnn2c(C(F)(F)F)cc(C(F)(F)F)nc12 | x | 99 | i | 1.1
47 | O=C(CO/N=C/c1ccccc1OC(F)F)NCc1cccs1 | -2 | 73 | i | 0.94
48 | COC(=O)c1c(NC(=O)COC(=O)CCc2ccc(S(=O)(=O)N3CCOCC3)cc2)sc2c1CCC2 | 2 | 96 | i | 0.86
49 | C=C(C)Cn1c(SCC)nc2ccccc2c1=O | -5 | 104 | i | 0.98
50 | CCCN1C(=O)/C(=C/c2nc3ccccc3c(=O)[nH]2)c2cc(C)ccc21 | x | 108 | i | 0.79

item | Insulin prom inh | Insulin prom inh cell count | GALR2 agonist
41 | 24 | 42 | -0.8
42 | x | x | -0.5
43 | x | x | -0.2
44 | 4 | 111 | 0.8
45 | 0 | 117 | -2.7
46 | x | x | x
47 | 47 | 96 | 0.0
48 | -6 | 120 | -1.4
49 | -14 | 129 | -0.9
50 | x | x | x

Some of the entries so far, with values under each structure:
Screens in order: PKD1 inh, RGS16-Gao HTS, HSV replic up, HSV replic up primary fold, Insulin prom inh, Insulin prom inh cell count, GALR2 agonist
(45) CC(C)CN(C(=O)COC(=O)C1c2ccccc2Oc2ccccc21)C1CCS(=O)(=O)C1 (centres undefined)
    -1, 94, i, 0.97, 0, 117, -2.7
(43) CCCCn1c(SCC(=O)NCC2CCCO2)nc2ccc(N3CCOCC3)cc2c1=O (centres undefined)
    7, 106, i, 0.69, x, x, -0.2
(48) COC(=O)c1c(NC(=O)COC(=O)CCc2ccc(S(=O)(=O)N3CCOCC3)cc2)sc2c1CCC2
    2, 96, i, 0.86, -6, 120, -1.4
(42) COc1cc2c(cc1OC)CN(C(=S)Nc1c(C)cccc1C)CC2
    -10, 110, i, 0.95, x, x, -0.5
(41) COC(=O)CC1C(=O)NCCN1C(=O)c1ccccc1 (centres undefined)
    -3, 100, i, 0.9, 24, 42, -0.8

Back to the main list, repeating the 2 entries before the break.
item | compound | PKD1 inh | RGS16-Gao HTS | HSV replic up | HSV replic up primary fold
49 | C=C(C)Cn1c(SCC)nc2ccccc2c1=O | -5 | 104 | i | 0.98
50 | CCCN1C(=O)/C(=C/c2nc3ccccc3c(=O)[nH]2)c2cc(C)ccc21 | x | 108 | i | 0.79
51 | Cc1cc(C)n2nc(SC3CCCCN(C(=O)c4ccc(F)cc4)C3=O)nc2n1 (centres undefined) | -8 | 113 | i | 0.98
52 | Cc1cccc(C)c1OCC(=O)Nn1c(C)nc2ccccc2c1=O | -3 | 103 | i | 1
53 | Cc1nn(Cc2ccccc2)c(C)c1NC(=O)c1cc(-c2ccc3c(c2)OCO3)on1 | -6 | 99 | i | 0.91
54 | Cc1cccc(NC(=O)NCC(c2ccco2)N2CCCCC2)c1 (centres undefined) | -1 | 105 | i | 0.83
55 | CCOC(=O)c1cnn(-c2cc(Oc3cccc(C)c3)ncn2)c1N | 4 | 100 | i | 0.97
56 | CC(=O)Nc1ccc(Oc2cnc3ccccc3n2)cc1 | 0 | 108 | i | 0.95
57 | N#CC1=C(N)Oc2n[nH]c(-c3cccnc3)c2C1c1cc(F)ccc1F (centres undefined) | -1 | 103 | i | 0.94
58 | CCOC(=O)C1CCCN(C(=O)CSc2ccc(Br)cc2)C1 (centres undefined) | 5 | 102 | i | 1
59 | Cc1ccc(C(=O)Cn2cc([N+](=O)[O-])nc2C)cc1 | x | 100 | i | 1.1
60 | CCNc1nc(NCC)nc(SCC(C)=O)n1 | 8 | 106 | i | 0.88

item | Insulin prom inh | Insulin prom inh cell count | GALR2 agonist
49 | -14 | 129 | -0.9
50 | x | x | x
51 | -21 | 79 | -1.1
52 | x | x | -1.1
53 | 65 | 105 | -1.3
54 | x | x | x
55 | -13 | 100 | -2.3
56 | -71 | 79 | -0.1
57 | 10 | 96 | x
58 | x | x | x
59 | x | x | x
60 | -15 | 157 | x

More structures:
item | compound | PKD1 inh | RGS16-Gao HTS | HSV replic up | HSV replic up primary fold
61 | O=C(C1=C[C@@H](c2coc3ccccc3c2=O)C[C@@H](OCc2ccc(CO)cc2)O1)N1CCN(Cc2ccc3c(c2)OCO3)CC1 | -3 | 102 | i | 0.94
62 | Cc1cc(S(=O)(=O)Nc2ccc3ccccc3c2)c(C)s1 | 7 | 99 | i | 0.56
63 | CC(C)CCNC(=O)C1CCCN(S(=O)(=O)c2ccc(F)cc2)C1 (centres undefined) | 4 | 97 | i | 1.1
64 | CCOC(=O)C1C(c2ccc(O)c(OC)c2)NC(=S)NC1(O)C(F)(F)F (centres undefined) | 0 | 104 | i | 1
65 | CC(C)c1ccc(-c2nnn(CCC#N)n2)cc1 | 10 | 99 | i | 1.1
66 | O=C1CC(=O)N(Cc2ccco2)C(=O)N1 | -6 | 94 | x | x
67 | O=C(CSc1ccccc1)N[C@@H](Cc1ccccc1)C(=O)O | -2 | 91 | i | 0.89
68 | COc1ccc(Cl)cc1S(=O)(=O)N1CCN(c2ccc(F)cc2)CC1 | -8 | 98 | i | 0.98
69 | O=C1OC(C(=O)Nc2nccs2)Cc2ccccc21 (centres undefined) | -10 | 103 | i | 0.99

item | Insulin prom inh | Insulin prom inh cell count | GALR2 agonist
61 | x | x | x
62 | -4 | 96 | -1.6
63 | -16 | 136 | -2.2
64 | 29 | 117 | 0.2
65 | x | x | x
66 | 9 | 139 | -2.0
67 | x | x | x
68 | 19 | 34 | -1.4
69 | x | x | -1.0
